Compound activity: PubChem BioAssay, National Center for Advancing Translational Sciences (NCATS)
VACV mCherry inh: inhibitors of vaccinia virus infection (mCherry reporter signal) | Vaccinia virus mCherry reporter infection, fluorescence; about a quarter of the inactives have no number | 310,000 compounds, 0.63% hits | AID 720579 | Potency, µM (top dose mostly 36.5 µM), inactives show top-dose activity change, negative = inhibition, hits mostly inhibitors; active = well fitted inhibition curve with a large enough effect; inconclusive = small, poorly fitted or top-dose-only effect; inactive = no such curve, though single readings can be large or run the other way; tested in A549 cells; further: nearly all actives have a fitted effect of over 35% in size; inactives centre near -10
VACV Venus inh: vaccinia inhibition (Venus reporter); 330,000 compounds, 0.46% hits; Vaccinia virus Venus reporter expression, fluorescence; Potency, µM (doses to about 36.5 µM), for the others: at the top dose activity change, negative = inhibition, usual class: inhibitors; AID 720580; active means well fitted inhibition curve with a large enough effect; inconclusive means small, poorly fitted or top-dose-only effect; inactive means no such curve, though single readings can be large or run the other way; tested in A549 cells; further: nearly all actives have a fitted effect of over 30% in size; inactives centre near -10
Active calls of the source: *; i = inactive; ? = inconclusive; · = no result given; & = joins results of further samples; [ ] = another dose, or the depositor's remark. On the % scale 0 is the no-effect control and ±100 the full control effect; potency means the concentration at half of the fitted maximal effect.

SMILES	VACV mCherry inh	VACV Venus inh
CCOC(=O)C1=C(C)N=c2sc(=C(C)C)c(=O)n2C1c1ccc(N(C)C)cc1 (stereo not given)	-14.7%	-5.0%
Cc1cccc(NC(=O)COC(=O)CN2C(=O)c3ccccc3C2=O)c1	i	-16.6%
Cc1cc(NC(=O)Nc2nnc(N(C)Cc3ccccc3)s2)ccc1Br	-10.2%	-10.7%
COC(=O)c1ccc(S(=O)(=O)NCc2ccco2)n1C	i	-5.9%
CCc1ccccc1N1C(=O)N(C)c2ccccc2S1(=O)=O	-2.1%	-10.1%
O=C(CNC(=O)c1ccco1)N/N=C/c1ccc(C(=O)O)cc1	39.5%[activator]	4.7%
COc1ccc(-c2nc(CN3CCC(C(=O)NC4CC4)CC3)c(C)o2)cc1OC	i	-1.2%
OC(c1cccc(CN2CCCCC2)c1)c1ncc(-c2cccc3ccccc23)[nH]1 (stereo not given)	-6.0%	?
Cc1ccc2c(c1)c1c3n2CCN(CCC#N)C3CCC1 (stereo not given)	i	-15.9%
O=C(c1cccc(C(F)(F)F)c1)N1CCN(S(=O)(=O)c2ccc(Cl)s2)CC1	-12.5%	-24.4%
O=C1CS/C(=N/N=C/c2ccc(OS(=O)(=O)c3ccccc3)cc2)N1	i	-1.8%
CCN(CC)C(=O)c1ccc2c(c1)C1C(Cl)C(Sc3ccccc3[N+](=O)[O-])CC1C(C(=O)O)N2 (stereo not given)	20.5%	4.0%
CC1C(=NO)C(C)C(c2ccccc2)NC1c1ccccc1 (stereo not given)	-15.7%	-11.2%
COc1ccc2c(c1)OC[C@H]1[C@H]2N2C(=O)CN(C)C(=O)[C@@]2(C)[C@H]1c1ccccc1	-4.8%	-6.4%
COCCNC(=S)N(CCc1c(C)[nH]c2ccccc12)Cc1cccnc1	-16.4%	-11.3%
CCOC(=O)CCCCN(Cc1ccccc1F)S(=O)(=O)c1ccc(F)c(C(=O)Nc2cc(Cl)cc(Cl)c2)c1	-2.5%	-7.2%
COc1ccc(N=C2SC(C(=O)Nc3ccc(C(=O)O)cc3)CC(=O)N2Cc2cccs2)cc1 (stereo not given)	i	-15.2%
O=C(Nc1ccc(NC(=S)NC(=O)c2cccs2)cc1)c1ccco1	i	-27.2%
COc1cc(-c2cc3nc(NCc4ccco4)ccn3n2)cc(OC)c1OC	-0.5%	-11.0%
CCOC(=O)c1c(C)[nH]c(C)c1S(=O)(=O)N(C)CC(=O)Nc1ccc(C)cn1	-4.3%[7.34 µM]	-3.0%[7.34 µM]
O=C(CNC(=O)c1ccccc1Br)NCCSc1ccc(Br)cc1	i	-9.8%
Cc1ccc2c(c1)N(C(=O)CCC(=O)NCCN1CCOCC1)CCO2	?	-13.3%
O=C(NC1CCCC1)C(c1cccnc1)N(Cc1ccc(F)cc1)C(=O)c1csnn1 (stereo not given)	i	-14.8%
Cc1ccc(NC(=O)CSc2nnc3c(n2)[nH]c2ccccc23)cc1	-1.7%	0.0%
CC(C)(C)OC(=O)NCCCC[C@H](NC(=O)c1[nH]cnc1C(=O)Nc1ccc(CNC(=O)OC(C)(C)C)cc1)C(=O)OC(C)(C)C	i	?
COC(=O)C1=C(C)N(Cc2ccccc2)C(=O)N[C@H]1c1cccc(C(F)(F)F)c1	i	-26.2%
CCN(CC)CCCNC(=O)c1cn(CC)c2ccc(S(=O)(=O)N3CCC(C)CC3)cc2c1=O	-20.8%	-5.6%
COc1ccccc1CNC(=O)C1CCCN(S(=O)(=O)c2ccc3c(c2)oc(=O)n3C)C1 (stereo not given)	-21.0%	-25.2%
CC(C)Oc1ccc(-c2nc(-c3cccnc3)no2)cc1	37.7%[activator]	-11.9%
O=C(COc1cc(F)ccc1[N+](=O)[O-])NCCN1C(=O)CSC1=O	?	?
CC(=O)c1ccc(NC(=S)N2CCN(C(=S)Nc3ccc(C(C)=O)cc3)C(C)C2)cc1 (stereo not given)	?	-26.1%
Cc1cc(C)c(C#N)c(SCC(=O)Nc2ccccc2C#N)n1	-9.9%	5.1%
CSCCC(NC(=O)c1ccccc1Br)C(=O)N1CCCC(C(F)(F)F)C1 (stereo not given)	-9.9%	-6.6%
COC(=O)C(CC(=O)c1ccc(Cl)cc1)c1ccc(C)cc1 (stereo not given)	·	-17.7%
O=C1/C(=C\c2ccsc2)NC(=S)N1c1ccccc1	-7.9%	9.4%
COCCCN1CCc2nc(SCC(=O)Nc3ccc(C)c(Cl)c3)[nH]c(=O)c2C1	-10.8%	-6.8%
CCC(=O)Nc1nnc(CSCc2ccccc2)s1	·	-29.6%
COc1ccc(-n2c(C)cc(C(=O)CSc3ccc(NC(C)=O)cc3)c2C)cc1	i	-22.8%
Cc1cc2c(cc1S(=O)(=O)N1CCN(c3cccc(C)c3C)CC1)OCC(=O)N2	-13.1%	-8.5%
COc1ccc(-c2noc(N3CCCC(C(=O)Nc4cc(F)ccc4F)C3)n2)cc1 (stereo not given)	-3.5%	-7.0%
Cc1ccc(-n2c(SCC(=O)NCc3ccccc3)nc3c([nH]c4ccccc43)c2=O)cc1	-8.1%	-7.4%
COc1ccc(OC)c(C(=O)COC(=O)c2[nH]c(C)c(C(C)=O)c2C)c1	i	-12.6%
O=C1CC(C(=O)Nc2ccccc2)C2(CCCCC2)O1 (stereo not given)	-10.9%	1.3%
CS(=O)(=O)N(Cc1ccccc1)c1ccc(C(=O)NCc2cccnc2)cc1	-26.0%	-27.8%
COC(=O)C1=C(c2ccc(OC)c(OC)c2)C[C@@H]2CC[C@H]1N2C(=O)NCc1ccco1	i	-9.9%
CC(=O)OCCC(C)CCC=C(C)C (stereo not given)	i	-0.2%
COc1cc(C(C)=O)ccc1OC(=O)N1CCOCC1	-13.9%	-5.0%
CCN(c1cccc(C(F)(F)F)c1)S(=O)(=O)c1ccc2c(c1)CCN2C(=O)C1CC1	?	?
CC(C)c1ccc(NC(=S)NCc2ccc3c(c2)OCO3)cc1	-1.2%	-18.4%
CN(C)CCN1C(=O)c2oc3ccc(F)cc3c(=O)c2C1c1ccncc1 (stereo not given)	-22.0%	1.8%
Cc1ccc(-n2ncc(C(=O)N3CCN(C(=O)c4ccco4)CC3)c2C2CCN(C(=O)OC(C)(C)C)CC2)cc1	-8.4%	-8.9%
C(#CCN1CCC(Cc2ccccc2)CC1)COCCOCc1ccccc1	-18.2%	-0.5%
COc1ccc(C(CNC(=O)c2cccc(S(=O)(=O)N3CCCc4ccccc43)c2)N(C)C)cc1 (stereo not given)	-20.7%	?
O=C(NC1CCCCC1)C(c1ccnc2ccccc12)N1CCOCC1 (stereo not given)	22.7%	3.3%
CCC1CN2CCC1CC2C(O)c1ccnc2ccc(OC)cc12 (stereo not given)	-23.9%	-20.2%
S=c1[nH]nc(-c2ccco2)n1/N=C/c1cccs1	i	-0.7%
COc1ccccc1NC(=O)Cc1c(F)cccc1Cl	i	-17.5%
CN(C(=O)COC(=O)/C=C/c1ccc(C(F)(F)F)cc1)c1c(N)n(Cc2ccccc2)c(=O)[nH]c1=O	?	?
CSCc1nnc2n1-c1ccc(Cl)cc1C(c1ccccc1)=NC2	i	-17.2%
Cc1cn([C@H](C(=O)NCCCCCCCCCCC(=O)N2CCNCC2)[C@@H](C)O)nn1	-22.2%	-23.9%

Other entries follow:
SMILES	VACV mCherry inh	VACV Venus inh
COC(=O)c1ccccc1NC(=O)C1CCCN(S(C)(=O)=O)C1 (stereo not given)	-13.8%	1.1%
COc1cccc(OCc2nc3ccccc3n2CCOc2cccc(C)c2)c1	0.0%	-5.6%
O=C(NCCC(=O)N1CCN(c2ncccn2)CC1)c1ccccc1Cl	·	-3.5%
COC(=O)c1ccc(NC(=O)N2CCN(Cc3cc(=O)n4nc(-c5ccc(C)cc5)sc4n3)CC2)cc1	1.1%	6.3%
Cc1cc(-n2nc(C)cc2C)nc(NS(=O)(=O)c2ccccc2)n1	·	-7.4%
Nn1c(SCC(=O)N2CCCC2)nnc1-c1cccs1	-13.2%	-9.2%
O=c1cc2c(nn1Cc1c(Cl)cccc1Cl)-c1ccccc1CC2	-26.5%	-18.4%
CCOCC(O)CNC(=O)c1ccc2nc(Cc3ccc(OC)c(OC)c3)oc2c1 (stereo not given)	-17.9%	-4.5%
NC(=O)CS(=O)(=O)c1nc2ccccc2n1CC(=O)N1CCCCC1	-6.9%	-2.9%
NCCN=C1NS(=O)(=O)c2ccccc21	-7.3%	-0.2%
O=C(Oc1ccc(-n2cnnn2)cc1)c1ccco1	-18.9%	-14.0%
COC(=O)c1c(C(=O)OC)c2n(c1C)CCS2	-8.1%	-5.1%
CC(C)CNS(=O)(=O)c1ccc(CCC(=O)NCCc2ccccc2)cc1	-0.7%	-5.8%
COC(=O)C(Cc1ccc(O)cc1)NC(=O)C1CCN(S(=O)(=O)c2ccc(C)cc2)CC1 (stereo not given)	-8.4%	-0.2%
Cc1[nH]c2ccccc2c1Cc1nnc(SCCC#N)o1	-3.4%	-7.3%
CCCCNS(=O)(=O)c1ccc2c(c1)oc(=O)n2CC(=O)OCC	8.5%	1.8%
CCc1ccc(C(=O)CSc2nc(-c3ccccc3)nc3c2CCCC3)cc1	-2.6%	-6.3%
COc1ccc(S(=O)(=O)NCCCCCC(=O)NCCCN2CCOCC2)cc1	i	-7.9%
CC(=O)Nc1ccc(NC(=O)CSc2ccc(-c3cccs3)nn2)cc1	-18.4%	-10.9%
COC(=O)c1ccc2c(=O)n(CCO)c(=S)[nH]c2c1	i	-8.1%

3 entries picked at random from the list so far:
SMILES	VACV mCherry inh	VACV Venus inh
NCCN=C1NS(=O)(=O)c2ccccc21	-7.3%	-0.2%
Cc1[nH]c2ccccc2c1Cc1nnc(SCCC#N)o1	-3.4%	-7.3%
COc1ccc(S(=O)(=O)NCCCCCC(=O)NCCCN2CCOCC2)cc1	i	-7.9%

(cont.)
SMILES	VACV mCherry inh	VACV Venus inh
CC1=CC2=NC(=O)/C(=C\c3cccn3CCOc3cc(C)ccc3C)C(=N)N2O1	-20.5%	?
O=C(Cc1ccc(Br)cc1)N/N=C/c1ccc(-c2cccc(C(=O)O)c2)o1	i	-0.8%
CCCOc1ccc(C(=O)N(Cc2ccccc2Cl)C2CCS(=O)(=O)C2)cc1 (stereo not given)	-14.6%	-1.8%
O=[N+]([O-])c1ccc(CN2CC(N3CCCC3)CS2(=O)=O)cc1 (stereo not given)	i	3.6%
Cc1ccc(S(=O)(=O)N2CCC(=O)N(CCOC(=O)Nc3cccc(Cl)c3)CC2)cc1	-9.4%	?
Cc1ccc(CN2CCC[C@]3(N[C@H](c4ccc(C)cc4)[C@@H]4C(=O)N(Cc5ccccc5)C(=O)[C@@H]43)C2=O)cc1	i	-22.6%
CCOC(=O)c1c(C)[nH]c(C)c1S(=O)(=O)N1CCC(C(=O)N2CCN(c3cccc(C)c3C)CC2)CC1	?	?
CCOC(=O)N1CCN(c2c(NCCN3CCN(c4ccccc4F)CC3)c(=O)c2=O)CC1	i	2.2%
CC(=O)c1c(C)[nH]c(C(=O)Nc2ccc(C)cc2Br)c1C	i	-25.5%
COC(=O)c1sc(NC(=O)C2CCCO2)c(C(=O)OC)c1C (stereo not given)	0.0%	-20.7%
COc1cccc(-c2cccc(-c3nc(C(=O)NCCCN4CCOCC4)cc4c3[C@H](CCO)N(S(=O)C(C)(C)C)C4)c2)c1 (stereo not given in full)	i	-9.5%
OC(CNc1ccccc1)COc1ccc(OCC(O)CNc2ccccc2)cc1 (stereo not given)	·	11.2µM*
Cc1ccccc1Cn1nc(C)c(NC(=O)/C=C/c2cnn(C)c2)c1C	-19.5%	-21.5%
CC(=O)Nc1ccc2c(c1)C(C)(C)C(C)N2C (stereo not given)	i	34.3%[activator]
Cc1ccc(NC(=O)CO/N=C/c2ccc(N(C)C)cc2)cc1	-0.3%	18.5%
COc1ccc(C)cc1NC(=O)c1c2c(nc3ccccc13)C(=O)N(C1CCCCC1)C2	-23.6%	-16.3%
COc1ccc(/C=N/N=C2/NC(=O)C(CC(=O)NC(N)=O)S2)cc1 (stereo not given)	i	-7.4%
Cn1c(SCc2ccc(F)cc2)nc2ccc(C(=O)NCc3ccc(F)cc3)cc21	-15.8%	-21.8%
Cc1ccc(NC(=O)C2CCCN(c3ncnc4c3nc3n4CCCCC3)C2)cc1Cl (stereo not given)	i	-19.2%
CC(C)(C)c1cc(-c2nc(N)nc(N)n2)c(O)c(C(C)(C)C)c1	?	?

Entries of single compounds, quoted from the list. Order of values: VACV mCherry inh, VACV Venus inh
`CCOC(=O)N1CCN(c2c(NCCN3CCN(c4ccccc4F)CC3)c(=O)c2=O)CC1` as listed: i, 2.2%
`CC(=O)c1c(C)[nH]c(C(=O)Nc2ccc(C)cc2Br)c1C` as listed: i, -25.5%

(list continues)
SMILES	VACV mCherry inh	VACV Venus inh
COc1cc(C(=O)OC2CC3CCC2(C)C3(C)C)ccc1OC(C)=O (stereo not given)	0.7%	-7.8%
O=C(CSc1nnc(-c2ccccc2F)o1)Nc1cccc(C(F)(F)F)c1	-11.4%	-16.1%
CCc1nnc(NC(=O)c2ccc(-c3ccc(F)cc3)o2)s1	-12.6%	12.0%
CCc1ccc(/C=C2\C(=N)N3N=C(CC(=O)N4CCCCC4)SC3=NC2=O)cc1	-13.1%	-10.6%
Cc1nn(CC(=O)OC(C)C(=O)Nc2ccccc2[N+](=O)[O-])c(C)c1[N+](=O)[O-] (stereo not given)	-8.6%	-7.7%
COc1ccc(OC)c(NC(=O)c2nc(SCc3ccccc3F)ncc2Cl)c1	?	-24.6%&-10.2%
Cc1c(Cl)cccc1NS(=O)(=O)c1ccc(-c2ccc(=O)[nH]n2)o1	i	-13.9%
